RecA intein inh: blocks M. tuberculosis RecA intein splicing; P9WHJ3; cell-free RecA intein splicing, fluorescence; inhibition, %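 (about 9 µM by stock and volumes)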; hit rate 0.75% among 290,000; in the data active means inhibition above about 30%; inconclusive means no clear call, values can overlap the other calls;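 further: 0% = vehicle wells and 100% = reference inhibitor control wells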
Target sequence (P9WHJ3 whole entry, looked up): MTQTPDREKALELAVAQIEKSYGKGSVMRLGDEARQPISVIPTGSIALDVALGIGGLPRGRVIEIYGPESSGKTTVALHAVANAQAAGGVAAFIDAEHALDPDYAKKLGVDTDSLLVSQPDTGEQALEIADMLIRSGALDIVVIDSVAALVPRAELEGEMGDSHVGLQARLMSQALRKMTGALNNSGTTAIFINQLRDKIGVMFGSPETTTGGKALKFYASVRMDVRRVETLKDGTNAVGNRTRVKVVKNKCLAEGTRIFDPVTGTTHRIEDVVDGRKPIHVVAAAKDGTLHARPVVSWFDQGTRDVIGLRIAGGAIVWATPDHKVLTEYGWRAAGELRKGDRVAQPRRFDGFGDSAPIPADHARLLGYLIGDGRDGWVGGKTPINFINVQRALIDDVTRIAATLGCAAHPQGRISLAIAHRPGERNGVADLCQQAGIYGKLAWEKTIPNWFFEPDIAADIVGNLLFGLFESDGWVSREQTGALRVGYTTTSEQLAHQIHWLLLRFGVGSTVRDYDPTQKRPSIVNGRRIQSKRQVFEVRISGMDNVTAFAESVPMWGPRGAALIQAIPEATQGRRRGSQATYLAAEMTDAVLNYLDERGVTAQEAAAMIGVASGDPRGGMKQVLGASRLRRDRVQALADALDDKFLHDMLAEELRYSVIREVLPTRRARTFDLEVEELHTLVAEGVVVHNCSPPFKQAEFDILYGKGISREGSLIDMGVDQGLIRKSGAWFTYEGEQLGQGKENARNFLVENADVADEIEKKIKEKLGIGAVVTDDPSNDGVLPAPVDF
Arbovirus anti: arbovirus infection inhibition; inhibition, % at 10 µM; hit rate 0.37% among 200,000; arbovirus infection cell-based antiviral screen;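 active means inhibition from about 30%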;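 further: bluetongue infection of BSR cells; cell survival read as ATP light after 72 h; 0% = infected wells without compound and 100% = uninfected wells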
YopH PTP inh: inhibitors of Yersinia enterocolitica YopH tyrosine phosphatase; fluorescence Ex485/Em525; inhibition, %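 (about 10 µM by stock and volumes)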; hit rate 0.16% among 140,000;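 active means inhibition of 50% or more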;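 further: controls were vehicle for no effect and minimum signal wells for full effect; inactives centre near -20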
Mtb growth: M. tuberculosis H37Rv growth inhibitors, H37Rv strain (AID 1626); hit rate 0.95% among 220,000; M. tuberculosis H37Rv growth inhibition; higher % means a stronger effect; one-dose inhibition, % at 10 µM; IC50 in µM for titrated hits;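 active means confirmed in a dose series; inconclusive means inhibition above 80% but not taken into the dose series; inactive means below 80% or under 30% at every dose of the series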;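 further: bacteria incubated seven days before Alamar blue readout; 0% = bacteria only wells and 100% = bacteria with antibiotic wells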
Mtb bLac sens: beta-lactam sensitization of Mtb H37Rv. hit rate 0.27% among 330,000. M. tuberculosis H37Rv growth with meropenem, percent inhibition; hits of this screen are not shown here. inhibition, % at 25 µM;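 active means about 74% or more and at least 40 points above the plate without the antibiotic, then above 30% in a dose series; inconclusive means first-round hits that could not be retested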;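 further: growth measured after seven days incubation then overnight dye step; 0% = bacteria only wells and 100% = bacteria with antibiotic; twin plates without the antibiotic show which effects depend on it; some results filed as inactive read as strong as hits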
Arbovirus anti repeat: further read-out of Arbovirus anti, marked with its call; inhibition, %; measured here: 10K subset replicate screen; many hits read low in the repeat;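 first of two repeat runs on a subset; 0% = infected and 100% = uninfected wells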
* marks the source's active call; other numbers are inactive results; ? = inconclusive; nt = not tested or not shown.

SMILES	RecA intein inh	Arbovirus anti	YopH PTP inh	Mtb growth	Mtb bLac sens	others
CC(=O)N/C(=C/c1ccc2c(c1)OCO2)C(=O)Nc1ccccc1	-0.8	0	-35	7%	7
Cc1ccc(S(=O)(=O)N2CC(O)C2)cc1	-1.0	nt	nt	nt	-3
Cc1ccc(CSCC(=O)NCc2ccco2)cc1	1.5	-4	nt	-2%	-11
Cc1ccc(S(=O)(=O)Nc2ccc(N3CCOCC3)nc2)cc1	-3.6	-2	nt	-3%	-7
Cc1ccc(C(=O)NC2CC(=O)N(c3ccc4c(c3)OCCO4)C2)cc1[N+](=O)[O-] (centres undefined)	-1.3	nt	nt	nt	-5
O=C(CN1CCCCC1)N1c2ccccc2CCc2ccccc21	nt	8	0	-8%	-4
c1ccc(CN2CCOCC2)cc1	1.6	8	-8	-13%	0
CC(=O)OC1C(N2CCCCC2)c2c(ccc(/C=C/C(=O)N3CCCCC3)c2O)OC1(C)C (centres undefined)	-4.1	-6	nt	-2%	11
O=C1CN(C(=O)c2cccc(Br)c2)c2ccccc2N1	1.3	nt	nt	nt	2
COc1cc2c(cc1OC)-c1cc(N3CCc4ccccc43)nc(=O)n1CC2	-4.0	nt	nt	-14%	-4
COC(=O)c1cc(OC)c(OC)cc1NC(=O)Nc1cccc(C(C)=O)c1	nt	3	nt	5%	5
CCCC(=O)NC(Nc1ccccc1F)C(Cl)(Cl)Cl (centres undefined)	3.0	0	-7	-2%	1
O=S(=O)(N/N=C/c1ccc(Cl)cc1)c1ccc(Cc2ncc(C(F)(F)F)cc2Cl)s1	7.9	5	-14	-9%	-3
COc1ccc(Cl)cc1NC(=S)NCc1ccccn1	-0.5	-4	-10	0%	-5
C=CCn1c(CNc2ccc(C)cc2)nnc1SCC(=O)N/N=C/c1ccc(O)cc1	1.4	-4	4	2%	-15

Continued; the last 5 above are carried over.
SMILES	RecA intein inh	Arbovirus anti	YopH PTP inh	Mtb growth	Mtb bLac sens	others
COC(=O)c1cc(OC)c(OC)cc1NC(=O)Nc1cccc(C(C)=O)c1	nt	3	nt	5%	5
CCCC(=O)NC(Nc1ccccc1F)C(Cl)(Cl)Cl (centres undefined)	3.0	0	-7	-2%	1
O=S(=O)(N/N=C/c1ccc(Cl)cc1)c1ccc(Cc2ncc(C(F)(F)F)cc2Cl)s1	7.9	5	-14	-9%	-3
COc1ccc(Cl)cc1NC(=S)NCc1ccccn1	-0.5	-4	-10	0%	-5
C=CCn1c(CNc2ccc(C)cc2)nnc1SCC(=O)N/N=C/c1ccc(O)cc1	1.4	-4	4	2%	-15
COc1ccc(S(=O)(=O)N2CCCCCC2)cc1NC(=O)CN1C(=O)NC(C)(c2ccc(C)cc2)C1=O (centres undefined)	8.5	nt	nt	nt	8
O=C(Nc1nc2ccccc2s1)C1CCCN1S(=O)(=O)c1ccc(Cl)cc1 (centres undefined)	9.0	-35	-1	2%	37
Cc1cc(N2CCN(c3ccccn3)CC2)n2nc(C)nc2n1	-0.2	nt	9	-1%	28
COc1ccc(-c2ccc3ccccc3n2)cc1OC	3.2	-6	nt	13%	95
COc1ccccc1NC(=O)CCC(=O)Nc1nnc(C(F)(F)F)s1	0.3	6	-26	2%	-1
CC(=O)NC(NC(=S)Nc1ccc(N=Nc2ccccc2C)cc1C)C(Cl)(Cl)Cl (centres undefined)	0.7	4	-24	-8%	12
CC(C)Nc1nc(NC(C)C)nc(C(N)=O)n1	-0.2	3	4	-5%	2
Cc1ccc2nc3c(nc2c1)-c1ccccc1C3=O	3.2	-10	-20	-8%	43
O=C(CCn1cnc(-c2ccccc2)c1-c1ccccc1)N/N=C/c1ccc(O)cc1	-0.4	-8	-11	6%	4
Cc1nnn(-c2nonc2N)c1C(=O)N/N=C/c1ccccc1O	2.3	-30	-14	0%	13
CCCCCn1c(=O)[nH]c2cc(C(=O)N3CCN(c4ccc(C(C)=O)cc4)CC3)ccc2c1=O	1.0	nt	nt	nt	6
CSc1nsc(SC)c1NC(=O)N1CCCCC1	1.1	-7	-11	0%	0
CC(C)CCN1CC(=O)N2Cc3[nH]c4ccccc4c3C[C@H]2C1=O	-0.1	nt	nt	nt	-7
CCOC(=O)Cn1ncc(-c2ccccc2)c1N	nt	3	-1	-8%	1	Arbovirus anti repeat=-10
CCOc1ccccc1N=Cc1c(O)c2ccccc2oc1=O	-2.0	nt	nt	nt	8
C[C@]12CC[C@@H]3c4ccc(O)cc4CC[C@H]3[C@@H]1CCC2=O	-0.5	-24	-49	15%	6
COc1ccc(N2C(=O)C(CC(=O)O)S/C2=N\N=C\c2cccs2)cc1 (centres undefined)	-1.9	nt	nt	nt	3
Cc1ccc(-c2cc(C(=O)NN=C3CCCC3)c3ccccc3n2)cc1	-3.5	-13	-51	4%	12
COc1ccc(OC)c(C(=O)CSc2nnc(Cc3cccs3)n2CCc2ccccc2)c1	8.8	-13	-80	6%	13
O=c1nc2n(c3sc4c(c13)CCCC4)C(CBr)CS2 (centres undefined)	6.5	-4	-9	-5%	-9
Cn1nc(C(=O)NCCN2CCOCC2)c2ccccc2c1=O	0.1	6	2	-5%	-4
CCOC(=O)C1(CCOc2ccccc2)CCN(Cc2cnc(C)s2)CC1	1.9	-3	nt	10%	-3
COc1cc2c(cc1OC)CN(C(=O)CSc1n[nH]c(N)n1)CC2	0.7	3	-22	-4%	-7
COc1cccc(CNC(=O)CCC2CCCN(c3cc(C)nc(N)n3)C2)c1 (centres undefined)	2.6	-7	nt	5%	-9
Cc1cc(NC(=O)c2noc3c2CCCC3)n(-c2ccccc2)n1	2.1	6	-47	9%	-1
CC(C)[C@H](NS(=O)(=O)c1cccc(Cl)c1)C(=O)OCC(=O)N1CCN(c2ccccc2)CC1	1.6	11	-13	6%	70
C=CCOC(=O)C1=C(C)NC(SC)=C(C#N)C1c1cccs1 (centres undefined)	3.4	-24	11	-3%	-4
Cc1ccccc1CC(=O)N1CCCC(CNC(=O)c2ccc(F)cc2)C1 (centres undefined)	-0.3	nt	nt	nt	4
COc1ccc(-c2n[nH]c(=S)nc2-c2ccc(OC)cc2)cc1	-6.3	nt	nt	nt	10
c1nc2nc3c(c(N4CCOCC4)n2n1)CCCC3	-0.9	0	-51	-2%	-13	Arbovirus anti repeat=0
COc1ccc(NC(=O)CN(c2cc(C)cc(C)c2)S(=O)(=O)c2c(C)noc2C)cc1OC	nt	7	-41	3%	0	Arbovirus anti repeat=-2
Cc1ccc(S(=O)(=O)N2CCc3c2cc([N+](=O)[O-])cc3[N+](=O)[O-])cc1	2.5	nt	nt	nt	2
COc1ccc(NC(=O)CSc2nnc(Cc3cccn3C)n2-c2ccc(F)cc2)cc1	-1.0	-5	4	-9%	1	Arbovirus anti repeat=-6
Cc1cccc(OCC(=O)NCCNC(=O)c2ccccn2)c1	-2.3	nt	nt	nt	-5
Cc1ccc(NC(=O)COC(=O)CNC(=O)c2cccc([N+](=O)[O-])c2)cc1S(=O)(=O)N1CCCCCC1	2.5	-1	-22	-3%	1
COc1ccccc1N=Nc1ccc(O)c2ncccc12	9.7	nt	nt	nt	96
C[n+]1ccc(C(=O)NCCC[N+](C)(C)C)cc1/C=N/O	2.0	-2	nt	3%	-1
CCN(CC)CCCNC(=O)C1c2ccccc2C(=O)N(CCOC)C1c1ccc(F)cc1 (centres undefined)	-1.5	5	nt	-1%	1
CCCCNC(=O)COC(=O)CCC(=O)c1ccc(Cl)cc1	-1.4	-2	nt	-7%	-3
CC(Oc1ccc(Cl)cc1Cl)c1ccn[nH]1 (centres undefined)	-2.7	0	nt	2%	6
O=C(Nc1cn(-c2ccccc2)nc1-c1ccc(Cl)cc1)c1ccccc1	7.5	4	-21	10%	5
C=C(C)c1cccc(C(C)(C)NC(=O)NC2CCCC2)c1	0.0	-3	-13	14%	4
Cc1ccc(/C([O-])=C(/C(=S)NCc2ccc3c(c2)OCO3)[n+]2ccc(N(C)C)cc2)c(C)c1	-0.1	-2	nt	6%	0
COc1ccc2c(c1)C(c1ccc(N3CCOCC3)cc1)=NNC(c1cccnc1)=N2	1.4	-4	-5	22%	9
CCCCCCCNC(=O)c1cc(-c2ccncc2)nc2ccccc12	0.5	nt	nt	nt	97
O=C(Nc1ccccc1Cl)N1CCN(c2ncccn2)CC1	2.1	10	-10	-3%	-3
CNC(CC(=O)c1ccc([N+](=O)[O-])cc1)C(Cl)(Cl)Cl (centres undefined)	nt	-22	-2	?	100
COc1ccccc1NC(=O)c1cccc(S(=O)(=O)N2CCN(Cc3ccccc3)CC2)c1	1.5	nt	nt	nt	-6
O=C(CNC(=O)c1cccnc1)N/N=C/c1cccnc1	-0.8	nt	nt	nt	1
Cc1ccc(C)c(N2CCN(CC3CC=CCC3)CC2)c1 (centres undefined)	-1.4	7	-18	0%	nt
NNC(=O)c1csc(-c2ccccc2)n1	0.3	nt	nt	-2%	89
Cn1c(=O)c([N+](=O)[O-])c(NCC2CCCO2)c2ccccc21 (centres undefined)	-2.3	nt	nt	-1%	-2
CCOC(=O)c1ccc(NC(=O)NC2CC3CCC(C2)N3Cc2nnnn2C(C)(C)C)cc1 (centres undefined)	-3.5	18	-48	-8%	-3
COCC(=O)Nc1nc2ccc(C)cc2s1	1.8	-1	26	-10%	-11
CC(OC(=O)/C=C/c1cccs1)C(=O)NC1CCCCC1C (centres undefined)	-1.0	nt	nt	nt	-5
O=C(CCS(=O)(=O)c1ccc(Br)cc1)NCc1ccc(F)cc1	-0.5	nt	nt	nt	4
C[N+]1(CC2COC(c3ccco3)O2)CCCCC1 (centres undefined)	-3.0	-1	nt	-1%	-8
CCCCOc1ccc(C(=O)Nc2ccc(S(=O)(=O)Nc3cc(C)on3)cc2)cc1OC	-3.6	5	-47	13%	9
COC(=O)C1=C(O)/C(=C\c2cc(C)n(-c3ccccc3C)c2C)N=C1C	-2.0	5	-5	2%	10
O=C(Nc1ccccc1)C1=C[C@H](c2ccccc2)C[C@H](OCCCCO)O1	2.5	nt	nt	4%	41
(listing goes on)
SMILES	RecA intein inh	Arbovirus anti	YopH PTP inh	Mtb growth	Mtb bLac sens	others
[O-][n+]1cccc2ncc3cscc3c21	-0.1	0	-2	-3%	1
COc1ccc(C(=O)N2CCN(C(=O)Cc3ccccc3)CC2)cc1OC	2.2	-5	4	-12%	5
COc1ccc(CCCC(=O)NC(C)c2ccccc2)cc1 (centres undefined)	-0.4	-6	-24	2%	7
CCN(CC)CCCCOc1ccccc1OC	4.0	5	-9	-11%	-3
CCOc1cc(N2CCOCC2)c(OCC)cc1NC(=O)COC(=O)/C=C/c1ccc(OC(F)F)cc1	-2.6	nt	nt	nt	0
CCCCn1c(N)c(N(CCOC)C(=O)c2cc(S(=O)(=O)N3CCOCC3)ccc2F)c(=O)[nH]c1=O	-0.6	nt	nt	nt	-9
S=C(NCC1CCCO1)NC1CCCC1 (centres undefined)	-0.6	2	nt	2%	-4
Cc1nc(C)c(-c2ccc(SCC(=O)Nc3cccc(Cl)c3C)nn2)s1	1.1	nt	nt	nt	3
COc1cc(SC)ccc1C(=O)Nc1ccc(Br)cn1	0.2	nt	nt	0%	2
COC(=O)/C=C1\SC(=Nc2ccc(Cl)c(Cl)c2)NC1=O	-1.0	14	nt	-6%	3
CCCCNC(=O)Nc1nnc(SCC(=O)OCC)s1	-0.8	-4	nt	3%	0
COc1cc(N)ccc1NC(=O)c1cccs1	-5.2	-4	-11	-8%	-1
NC(=O)C1CCN(C(=O)COc2ccc(S(=O)(=O)NC3CCCC3)cc2)CC1	-1.5	nt	nt	nt	-7
COc1ccc(C(C)=O)cc1CSc1nnc(C)n1-c1ccccc1	-1.2	-10	-19	-5%	-8
CC(=NCCCO)c1c(O)n(Cc2ccccc2)c(=O)[nH]c1=O	-0.6	2	10	-8%	-9
CC1Cn2c(nnc2-c2cccs2)S1 (centres undefined)	-0.2	nt	-28	-1%	3
CCC(=O)Nc1cc(Cl)ccc1N1CCN(C(=O)CC)CC1	0.6	19	-32	5%	-8
O=C(CN(C(=O)c1csnn1)c1ccc(Br)cc1)NC1CCCC1	-1.8	nt	nt	nt	-6
CCOc1ccccc1NC(=O)N1CCCC1C(=O)NCc1cccs1 (centres undefined)	12	nt	nt	nt	6
CN(C)N=Nc1ccc(S(=O)(=O)/N=C(\O)c2ccccc2)cc1	-1.3	nt	nt	nt	-1
O=C(Cn1cnc2c(nnn2Cc2ccc(F)cc2)c1=O)NCC1CCCO1 (centres undefined)	1.7	-3	3	5%	-5
Nc1cc(Cl)c(N)cc1Cl	1.2	-14	-23	-1%	0
CCOC(=O)N1CCN(C(=O)c2ccccc2Oc2ccccc2)CC1	2.2	-7	-47	-8%	-19	Arbovirus anti repeat=-5
O=C(N/N=C/C=C\c1ccccc1[N+](=O)[O-])c1cc(-c2ccccc2)nc2ccccc12	-0.2	-2	-4	?	69

An excerpt. The share of hits here may be higher or lower than overall.
